HNF4A DNA FP – change in binding of human HNF4A to DNA, primary screen, biochemical, fluorescence polarization, FITC-DNA; 0.3% of 360,000 active; Hepatocyte nuclear factor 4-alpha (Homo sapiens), P41235; 1 h; activity change, % at 10 µM; AID 1224865, 2016; in the data active = activity change above about 30%, passing the limit was not always enough;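 also: controls were the assay level and a saturating level of protein; the project sought stronger binding though the title names inhibitors; some compounds called inactive have numbers as strong as hits; positive values seem to mean higher polarization but the record does not say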
FGF22 binding – binders of human FGF22 protein, primary screen, FGF22 synaptogenesis inhibitor project, biophysical, thermal shift, single point; Fibroblast growth factor 22 (Homo sapiens), Q9HCT0; recombinant FGF22 thermal shift, SYPRO orange fluorescence; percent of sucrose octasulfate shift, DMSO zero; calls only at 9.99 µM; 1.5% of 340,000 active; AID 651658, 2012;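 active = melting point raised past a set limit in the mean and every replicate; inconclusive = no clear call; three in four hits are not shown here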
Target sequence (Q9HCT0 whole entry, looked up): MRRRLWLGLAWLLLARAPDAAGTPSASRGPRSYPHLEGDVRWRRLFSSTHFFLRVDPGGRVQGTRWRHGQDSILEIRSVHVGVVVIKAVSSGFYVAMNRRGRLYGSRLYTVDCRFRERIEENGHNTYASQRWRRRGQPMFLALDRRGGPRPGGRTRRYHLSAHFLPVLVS
MLL AF4-AF9 inh – inhibitors of AF4 peptide binding to AF9, primary screen, biochemical, AlphaScreen, biotin-AF4 peptide, FLAG-AF9, single point. Protein AF-9 (Homo sapiens), P42568. inhibition, % at 10 µM. 0.47% of 350,000 active;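 active = every replicate reaching a set inhibition limit, whatever the replicate mean, cut at about 25% in these data; inconclusive = mean inhibition reaches that limit but some replicates miss it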;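 also: 0% = plate neutral control median and 100% = total signal loss; the record names both 10 and 1 µM as test concentration; the first replicate is given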
Target sequence (P42568 whole entry, looked up): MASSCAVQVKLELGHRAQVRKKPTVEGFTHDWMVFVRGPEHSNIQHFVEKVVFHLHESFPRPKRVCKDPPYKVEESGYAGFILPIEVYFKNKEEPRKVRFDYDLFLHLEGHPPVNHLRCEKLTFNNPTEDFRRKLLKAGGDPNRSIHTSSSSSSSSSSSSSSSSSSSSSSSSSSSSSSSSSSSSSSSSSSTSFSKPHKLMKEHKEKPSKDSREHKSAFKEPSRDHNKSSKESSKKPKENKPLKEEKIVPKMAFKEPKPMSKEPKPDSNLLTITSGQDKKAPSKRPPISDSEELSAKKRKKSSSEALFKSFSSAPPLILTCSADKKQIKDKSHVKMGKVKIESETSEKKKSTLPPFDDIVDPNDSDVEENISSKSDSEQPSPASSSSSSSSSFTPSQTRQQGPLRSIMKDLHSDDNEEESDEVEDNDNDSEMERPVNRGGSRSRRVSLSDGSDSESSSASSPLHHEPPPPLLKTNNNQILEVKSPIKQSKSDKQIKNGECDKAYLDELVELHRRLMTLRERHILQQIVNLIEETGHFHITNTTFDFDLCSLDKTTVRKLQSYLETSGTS
RanGTP-Imp inh – inhibitors of RanGTP-importin-beta interaction, primary screen, biochemical, FRET, CFP-Ran, YFP-importin-beta, homogeneous. Ran GTPase (GTP-bound) - importin-beta complex. cell-free CFP-Ran/YFP-importin-beta FRET ratio. inhibition, % (concentration not given with the values). 1.1% of 300,000 active;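 active = most replicates above 15%; inconclusive = exactly half above 15%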;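 also: 0% = DMSO wells and 100% = Ran loaded with GDP instead of GTP; wells of about 40 µL received 100 nL stock; the first replicate is given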
UCH37 inh – inhibitors of human UCH37 deubiquitinase, primary screen, biochemical, Ub-AMC cleavage, fluorescence. Ubiquitin carboxyl-terminal hydrolase isozyme L5 (Homo sapiens), Q9Y5K5. purified proteasome/UCH37. inhibition, % (test concentration not listed). 0.33% of 330,000 active. AID 588478, 2011;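 active = mean of two replicates above 20%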;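 also: 0% = compound-free wells with enzyme and 100% = wells lacking proteasome; stock transfer was 100 nL into about 20 µL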
Target sequence (Q9Y5K5 whole entry, looked up): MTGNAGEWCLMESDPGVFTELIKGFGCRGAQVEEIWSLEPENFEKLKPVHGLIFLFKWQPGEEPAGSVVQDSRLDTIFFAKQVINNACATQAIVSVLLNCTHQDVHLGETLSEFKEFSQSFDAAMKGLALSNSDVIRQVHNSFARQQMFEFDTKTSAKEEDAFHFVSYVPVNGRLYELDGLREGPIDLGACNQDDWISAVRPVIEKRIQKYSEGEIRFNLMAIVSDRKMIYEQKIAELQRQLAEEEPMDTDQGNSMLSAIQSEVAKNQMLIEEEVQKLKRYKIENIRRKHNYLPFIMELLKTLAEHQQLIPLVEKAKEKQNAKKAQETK
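Material: human UCH37 enzyme supplied as purified proteasome complex / Amount: 0.15 nM proteasome as dispensed / Buffer or medium: pH 7.4 Tris-HCl (50 mM) with ovalbumin, ATP-MgCl2, DTT / Times: preincubation 30 min, reaction 25 min, room temperature / Technique: AMC fluorescence from Ub-AMC cleavage, excitation 355 nm, emission 460 nm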
Vif A3G – inhibitors of Vif binding to APOBEC3G peptide, primary screen, biochemical, TR-FRET, GST-Vif 1-94, biotin-A3G peptide, dose response retest (AID 1117319). Virion infectivity factor (Human immunodeficiency virus type 1 group M subtype B (isolate …. TR-FRET GST-Vif / biotin-A3G peptide binding; higher % means a stronger effect; test concentration not given here; strong numbers were not always called active. inhibition, %, or IC50 in µM where a hit was titrated. 0.57% of 260,000 active;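 active = above the screen mean plus three standard deviations and confirmed in dose response; inconclusive = results disagree or hit not tested in dose response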;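 also: Vif residues 1-94 fused to GST binding biotinylated APOBEC3G peptide 110-148; 0% = full assay without inhibitor and 100% = GST in place of GST-Vif; retest series ran down from 100 µM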
Ecoli growth – E. coli growth inhibition, primary screen, OD600. AID 1053175, 2014. Escherichia coli growth, 23 h; active compounds read low. OD600 absorbance (test concentration not listed). 0.21% of 330,000 active;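 active = OD600 absorbance below the run mean of sample wells minus 3.6 SD, in any replicate, cut at about 0.56 in these data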;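 also: stock transfer was 300 nL into about 60 µL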
An asterisk follows results filed as active; i = inactive; ? = inconclusive; nt = no result given; & = joins results of further samples.

SMILES	HNF4A DNA FP	FGF22 binding	MLL AF4-AF9 inh	RanGTP-Imp inh	UCH37 inh	Vif A3G	Ecoli growth
CC(=O)O[C@@H]1[C@H](Oc2c(O)c(C)c3c4c2[C@H](C)CC[C@H]4[C@H](C)C[C@@H]3C=C(C)C)O[C@@H](C)[C@@H](O)[C@H]1O	2.5	i	11	nt	nt	nt	nt
CCOC1=C2CN(S(=O)(=O)c3ccc(C)cc3)[C@H](c3cccc(Cl)c3)C[C@H]2[C@H]2C(=O)N(c3ccccc3)C(=O)[C@H]2C1	-1.3	i	5.9	nt	nt	nt	nt
CCC1CN(C(=O)N2CCC(C(=O)Nc3ccccc3OC)CC2)c2ccccc2O1 (stereo unspecified)	0.3	i	2.3	-1.5	2.7	nt	0.69
Cc1ccc(S(=O)(=O)N2CCN(C(=O)c3ccccc3-c3nc4ccccc4s3)CC2)c(C)c1	-1.0	i	8.0	3.5	-2.4	-2%	0.64
O=C(Cc1ccc(-n2c(=S)[nH]c3ccccc3c2=O)cc1)N1CCN(c2ccccc2)CC1	-1.5	nt	nt	-0.9	3.8	-4%	0.68
Cc1ccc(NC(=O)ON=C2CCCC2)cc1	-0.7	i	-0.8	5.4	1.5	nt	0.62
Cc1cc2c(c(=O)n1CCN(C)C)C(c1ccc(Cl)cc1)C(C#N)=C(N)O2 (stereo unspecified)	5.3	nt	nt	2.4	1.4	10%	0.65
COC(=O)c1cc(NC(=O)c2ccc(C)cc2)c(=O)oc1C	0.3	i	-2.0	0.8	6.0	-8%	0.65
CC(=O)Nc1ccc(-n2cnnn2)cc1	-0.7	nt	nt	1.3	4.8	nt	0.73
CN(CC(=O)NCC(c1ccccc1)N1CCCC1)S(=O)(=O)c1ccc(Cl)cc1 (stereo unspecified)	0.8	i	8.9	nt	-0.7	-2%	0.64
COc1cccc(C(=O)Nc2nc3ccccc3[nH]2)c1	-2.3	nt	nt	0.7	-5.3	66%	0.71
Nc1c(C(=O)N2CCCCC2)sc(=S)n1-c1ccccc1	-0.2	nt	nt	2.7	5.3	7%	0.67
CN1CCN(S(=O)(=O)c2cccc(C(=O)Oc3ccc(Br)cc3F)c2)CC1	3.9	i	-13	-0.6	-1.2	nt	0.64
Cc1cccc(C)c1OCCNC(=O)C(=O)NCc1ccco1	1.4	i	-0.8	-0.6	2.5	6%	0.69
CCCC1=C(C(=O)OCC)C(c2ccc(N(C)C)cc2)n2ncnc2N1 (stereo unspecified)	-0.9	nt	nt	-1.9	5.3	16%	0.72
CC(=O)c1cc2c(cc1NS(=O)(=O)c1ccccc1Br)OCO2	-2.4	i	0.3	-6.5	-0.9	nt	0.67
Cc1ccc(C)c(NC(=O)C2(C)CCN2C(C)C)c1 (stereo unspecified)	-0.3	i	-4.6	nt	nt	nt	nt
O=C(NCCOc1ccccc1Cl)c1cccc2c1C(=O)c1ccc(Cl)cc1S2(=O)=O	-1.2	i	-3.2	nt	-0.3	nt	0.73
CSc1ccc(OC2(C)CCN(Cc3ccc4c(c3)OCCO4)C2)cc1 (stereo unspecified)	0.6	i	4.6	nt	nt	nt	nt
COc1cccc(-c2nn(-c3ccc(C)cc3)cc2C(=O)N2CCN(C3CCS(=O)(=O)C3)CC2)c1 (stereo unspecified)	-6.2	i	0.4	nt	3.4	-2%	0.68
O=C(NN=Cc1cccc([N+](=O)[O-])c1)c1cccc2ccccc12	-2.9	i	0.2	nt	nt	-10%	nt
CCOCc1c(C(=O)N2CCN(Cc3ccc(Br)s3)CC2)oc2ccccc12	0.6	i	1.9	nt	0.6	nt	0.69
CCCNC(=O)C1(C)CCN(Cc2ccc(C)c3ccccc23)C1 (stereo unspecified)	-2.0	i	-7.2	nt	nt	nt	nt
COc1ccccc1OCCC(=O)OCC(=O)Nc1ccc(Br)cc1	-2.9	nt	nt	5.1	1.4	nt	0.71
Cc1ccc(CNC(=O)C2CC(c3cccc([N+](=O)[O-])c3)=NO2)o1 (stereo unspecified)	1.8	i	-2.3	2.0	-0.1	10%	nt

(list continues)
SMILES	HNF4A DNA FP	FGF22 binding	MLL AF4-AF9 inh	RanGTP-Imp inh	UCH37 inh	Vif A3G	Ecoli growth
CCOc1ccc(Nc2nc3cc(S(=O)(=O)N(CC)CC)ccc3o2)cc1	1.1	nt	nt	5.0	6.8	5%	nt
O=C(NCc1nc2ccccc2[nH]1)C1=C[C@@H](c2ccccc2)C[C@@H](OCc2ccc(CO)cc2)O1	0.9	i	1.5&-1.1	-0.3	-0.9	-2%	nt
COc1ccc(CN(CC2CCCO2)S(=O)(=O)c2ccc(-n3cnnn3)c(OC)c2)cc1 (stereo unspecified)	3.1	nt	1.1	-0.2	-0.4	nt	0.68
COc1ccc(CCn2c(=N)c(C(=O)NCC3CCCO3)cc3c(=O)n4cccc(C)c4nc32)cc1OC (stereo unspecified)	-6.2	i	-3.2	0.1	1.3	nt	0.59
COc1cccc(/C=N/NC(=O)c2cccc3ccccc23)c1OC	-1.1	i	0.4	4.4	nt	nt	nt
Cc1c(O)c2c(=O)n(-c3ccccc3)c(-c3ccccc3)cc2oc1=O	-2.6	i	8.6	-0.3	-94	1%	0.75
CCCCOC(=O)C1[C@H]2C(=O)N(c3ccccc3CC)C[C@]23C=C[C@H]1O3 (stereo partly specified)	0.3	nt	nt	-2.8	-1.6	6%	nt
O=C1c2cccc3cccc(c23)N1Cc1cccc(F)c1	-1.2	i	-0.3	-3.8	-35	nt	0.65
CSCCC(=O)N1CCCC(CO)(CCCc2ccccc2)C1 (stereo unspecified)	4.9	i	0.0	-1.9	2.2	nt	0.69
O=C(Cn1cc2c(n1)CCCC2)NCc1ccccn1	-5.2	i	-0.5	-0.5	3.2	-3%	0.74
CN(C)S(=O)(=O)c1ccc(C(=O)NCc2ccccn2)cc1	3.3	i	-2.1	nt	3.3	4%	0.63
Cc1cc2c(s1)c1cnn(-c3ccccc3)c(=O)c1n2C	-0.4	i	-1.6	nt	0.8	nt	0.66
O=C1NC(=Nc2ccccc2)CS1	1.4	i	-0.6	0.3	2.2	nt	0.63
C=CCN1CCc2c(cc(O)c(O)c2Br)[C@@H](c2ccccc2)C1	3.5	i	1.1	-9.5	5.5	nt	nt
CC(C)CCNS(=O)(=O)c1ccc(-c2ccc(S(=O)(=O)NCCC(C)C)cc2)cc1	-2.0	i	-12	-1.1	-1.5	1%	0.71
O=C(COc1cc(Cl)ccc1Cl)Nc1ccc2[nH]c(=O)[nH]c2c1	2.7	nt	-1.7	1.2	2.3	6%	0.69
O=C(NCCCN1CCN(c2ccc(F)cc2)CC1)c1cccc(N2CCCC2=O)c1	1.3	nt	nt	-2.3	2.6	31%	0.7
CCOCCCn1c(SCC(=O)NC(C)C)nc2ccccc2c1=O	0.0	nt	nt	-0.5	1.1	6%	0.64
c1coc(-c2ccnc3ncnn23)c1	-1.7	nt	nt	-3.7	nt	3%	nt
Cc1noc(C)c1S(=O)(=O)N(C)C[C@H]1Oc2c(cccc2N(C)C)C(=O)N([C@H](C)CO)C[C@@H]1C	1.2	i	-1.6&-1.7	nt	4.4	0%	0.71
CCOC(=O)C1CCN(CC(=O)Nc2cc(S(=O)(=O)N3CCCCC3)ccc2Cl)CC1	0.6	i	-2.8	nt	1.4	3%	0.66
CCN1CCN(c2c(Cl)cccc2NC(=O)c2ccc([N+](=O)[O-])cc2)CC1	-3.4	nt	2.7	1.2	nt	-2%	nt
COc1ccc(C2NC(=O)NC(O)(C(F)(F)F)C2C(=O)c2ccc(F)cc2)cc1 (stereo unspecified)	0.1	nt	nt	0.9	1.0	-2%	0.72
CN(CCNC(=O)CN1C(=O)CSc2ccc(S(=O)(=O)N3CCCC3)cc21)Cc1ccccc1	1.6	i	1.1	3.5	0.1	11%	0.69
Cn1c(CNc2cccc(C(F)(F)F)c2)n[nH]c1=S	0.9	i	-4.8	2.7	0.7	?	0.69

The listing continues.
SMILES	HNF4A DNA FP	FGF22 binding	MLL AF4-AF9 inh	RanGTP-Imp inh	UCH37 inh	Vif A3G	Ecoli growth
COC(=O)c1ccc(C)c(NC(=O)CCSc2ccc(Cl)cc2)c1	95*	nt	nt	3.6	0.4	?	0.68
C#CCNC(=O)C[C@@H]1C[C@@]2(C(=O)OCC)CCC=C2N(Cc2ccc3c(c2)OCO3)C1=O	-0.1	i	-6.1	nt	nt	nt	nt
CN(C)c1ccc(/C=N/NC(=O)c2cc(-c3ccc4c(c3)OCO4)n[nH]2)cc1	47*	i	-5.2	-1.7	nt	26%	nt
COc1cc(C2OCC3C(c4cc(OC)c(OC)c(OC)c4)OCC23)cc(OC)c1OC (stereo unspecified)	3.4	i	1.3	-3.5	-3.5	nt	0.72
COc1ccc(C2C(C(=O)Nc3ccccc3OC)=C(C)Nc3nnnn32)c(OC)c1 (stereo unspecified)	2.4	nt	nt	-3.7	5.1	6%	0.69
O=C(O)c1ccc(CSc2nnc(COc3ccc(Cl)cc3Cl)o2)cc1	1.7	i	-5.8	-0.2	3.4	1%	0.72
O=C1NCC(COCC2CC=CCC2)O1 (stereo unspecified)	1.5	nt	nt	-3.7	0.3	11%	0.64
O=C(Nc1ccc(F)c(Cl)c1)[C@@H]1O[C@H](CO)[C@H](O)[C@H](O)[C@H]1O	3.0	i	-0.5	nt	nt	nt	nt
CC(CCc1ccccc1)NCc1cccc2ccccc12 (stereo unspecified)	1.7	i	0.9	2.7	1.9	nt	0.63
Fc1ccc(C2=Nn3c(Cc4ccccc4)nnc3SC2)cc1	0.8	nt	nt	1.6	0.0	?	0.7
Cc1nn(Cc2c(Cl)cccc2Cl)c(Cl)c1/C=C/C(=O)OCC(=O)NCC(F)(F)F	-5.2	nt	nt	-1.1	0.4	1%	0.75
CC(Oc1cccc(Br)c1)C(=O)NNC(=O)c1ccccn1 (stereo unspecified)	1.0	nt	nt	nt	3.0	nt	0.7
O=S(=O)(N/N=C\c1cccnc1)c1ccccc1	1.4	i	1.4	-2.5	nt	nt	nt
CC(C)(C)c1cc(C(=O)N/N=C/c2ccc(-c3ccccc3[N+](=O)[O-])o2)n[nH]1	-1.5	i	5.9	-8.7	nt	28%	nt
N#CC1=C(Nc2ccccc2)SC=C(c2ccccc2)N=C1N1CCOCC1	-1.4	nt	nt	-4.7	nt	24%	0.71
COc1ccc(NC2=C(C(C)=O)C(c3ccc(N(C)C)cc3)C(C(C)=O)C(C)(O)C2)cc1 (stereo unspecified)	-2.9	i	1.6	-4.1	10	-8%	0.66
O=C1CC2C(CC(OC(=O)c3ccc(-c4ccccc4)cc3)C2CO)O1 (stereo unspecified)	-0.4	nt	nt	0.1	2.3	2%	0.71
Cc1ccc(NC(=O)CN2CCC(Cc3ccccc3)CC2)cc1S(=O)(=O)N(C)C	1.8	i	-0.5	-0.1	1.5	-7%	0.64
CCc1ccc2[nH]c(C(=O)Nc3ccc(F)cc3Br)cc2c1	2.0	i	-7.0	-0.1	-0.7	-24%	0.65
Cc1cccc(NC(=O)/C(=C\c2ccco2)NC(=O)c2ccccc2)c1	6.3	nt	nt	3.3	3.6	14%	0.72
COc1cc(C)nc(N(C)S(=O)(=O)c2ccccc2Cl)n1	-1.0	nt	nt	1.2	3.3	1%	0.75

Screening data (PubChem)

This is a subset, so the mix of outcomes need not match the whole.
